FPR: FPR binders displacing fluorescent formyl peptide, primary screen, U937-FPR cells, fMLFK-FITC, flow cytometry (AID 362); U937-FPR cells, fMLFK-FITC displacement, flow cytometry; active compounds read high; test concentration not given here; most inactive calls were filed without a number and no value below 0 was filed; inhibition, %; 4,300 tested, 1% active;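 active = inhibition of labelled peptide binding to the formyl peptide receptor of at least 65%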;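 also: plate controls were buffer control wells for no effect and unlabeled fMLFF blocking peptide for full effect; higher means less cell fluorescence so more probe displaced; part of the set was picked by virtual screening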
* marks the source's active call; other numbers are inactive results; i = inactive. Not all compounds are listed. The share of hits here may be higher or lower than overall.

Start of the listing, in advance, 3 compounds:
SMILES	FPR
Cc1cc(OCC(=O)Nc2ccc3c(C(F)(F)F)cc(=O)oc3c2)cc(C)c1Cl	i
COc1ccc(C2(CN)CCCC2)cc1OC	i
N#CC1=C(N)Oc2c(c(=O)oc3ccccc23)C1C1CCCCC1 (centres undefined)	5

Results, previewed entries included:
SMILES	FPR
Cc1cc(OCC(=O)Nc2ccc3c(C(F)(F)F)cc(=O)oc3c2)cc(C)c1Cl	i
COc1ccc(C2(CN)CCCC2)cc1OC	i
N#CC1=C(N)Oc2c(c(=O)oc3ccccc23)C1C1CCCCC1 (centres undefined)	5
O=C(OCCN1CNC(=N[N+](=O)[O-])NC1)C1CCCCC1	1
CN(C)C1(c2nnnn2CCOC(=O)Nc2ccc(Cl)cc2)CCCCC1	13
CCCCc1nc2ccccc2c(=O)n1-c1ccc(O)cc1	1
O=C(Nc1ccc(Cl)cc1)OCCn1nnnc1C1(N2CCOCC2)CCCCC1	5
O=c1cccc2n1CC1CC2CN(c2ncnc3c2cnn3-c2ccccc2)C1 (centres undefined)	i

In another format: entries from further up
CN(C)C1(c2nnnn2CCOC(=O)Nc2ccc(Cl)cc2)CCCCC1
  FPR = 13
CCCCc1nc2ccccc2c(=O)n1-c1ccc(O)cc1
  FPR = 1

Source: PubChem (NMMLSC)
